# VDR inhibitor = vitamin D3 receptor (human) inhibition. P11473. VDR-SRC2-3 peptide fluorescence polarization, 2 h. Potency, µM, without a hit: max response, negative = inhibition, actives largely listed as inhibitors. actives 0.93% (n = 400,000); active = well fitted inhibition curve with a large enough effect; inconclusive = small, poorly fitted or top-dose-only effect, or another doubt; inactive = no such curve, though single readings can be large or run the other way; also: series mostly up to about 120 µM
# Target sequence (P11473 whole entry, looked up): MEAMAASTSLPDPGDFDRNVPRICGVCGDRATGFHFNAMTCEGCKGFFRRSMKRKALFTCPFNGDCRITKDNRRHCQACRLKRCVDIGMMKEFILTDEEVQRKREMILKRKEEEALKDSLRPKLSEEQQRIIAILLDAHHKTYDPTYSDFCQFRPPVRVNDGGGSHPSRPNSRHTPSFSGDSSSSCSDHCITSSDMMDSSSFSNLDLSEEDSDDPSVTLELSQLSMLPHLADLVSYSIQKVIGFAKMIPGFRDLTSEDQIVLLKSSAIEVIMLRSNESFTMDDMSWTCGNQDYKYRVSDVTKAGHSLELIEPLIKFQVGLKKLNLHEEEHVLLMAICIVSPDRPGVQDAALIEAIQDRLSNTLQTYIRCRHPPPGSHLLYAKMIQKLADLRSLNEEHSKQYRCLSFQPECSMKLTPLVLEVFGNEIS
#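 The screen uses fluorescence polarization to detect compounds that interfere with recruitment of the SRC2-3 coactivator peptide to VDR; plates are read after 2 h at room temperature.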
# * = called active by the depositor; ? = inconclusive; [ ] = another dose, or the depositor's remark. % is scaled to controls: 0 for no effect and ±100 for the full control effect; potency is read from the fitted curve at half-maximal effect. These rows are one share of the data; count on the stated rates, not on these rows.
structure	VDR inhibitor
O=C(NCCc1ccccc1)c1sc2ncccc2c1-n1cccc1	-1.1%
COc1ccc(CCN2C(=O)C(Oc3ccccc3C)C2c2ccc3c(c2)OCO3)cc1OC (configuration not stated)	19.4%
O=C(CNC(=O)c1ccco1)NCC(=O)OCc1ccccc1Br	-8.4%
CCc1nn2c(=O)cc(COC(=O)CNC(=O)COc3ccc(C)cc3)nc2s1	6.2%
CCc1ccc(/C=C2/Sc3ccccc3N(CC(=O)NCC3CCCO3)C2=O)cc1 (configuration not stated)	8.2%
CCN(CC)CCNC(=O)Cn1ncc2c3ccccc3n(Cc3ccc(Cl)cc3)c2c1=O	2.0%
COc1cccc(NC(=O)Cn2c(=O)oc3cc(S(=O)(=O)N4CCCCC4)ccc32)c1	0.1%
CCOc1ccc2nc(NC(=O)c3cc(=O)c4ccc(C)cc4o3)sc2c1	-3.6%
COc1ccc(N2CCC(CNC(=O)Nc3ccccc3)C2)cc1 (configuration not stated)	-6.2%
Cc1ccccc1Nc1c(-c2ccc(N3CCOCC3)cc2)nc2cccc(C)n12	-19.6%
COc1ccc(Nc2nc(-c3sc(C)nc3C)cs2)c(OC)c1	-13.7%
CCOc1cc2c(cc1OCC)C(c1ccc(O)c(OC)c1)NCC2 (configuration not stated)	-7.6%
Cc1c(Cl)ccc2c(C(O)CBr)cc(-c3ccccc3)nc12 (configuration not stated)	8.6%
COc1ccc(-c2noc(-c3cccs3)n2)cc1OC	-10.2%
COc1ccc(CN(CCC#N)CCC2(c3ccccc3)CC(C)N(C)CC2C)cc1OC (configuration not stated)	14.7%

# Five compounds already listed, ordered by the number in VDR inhibitor, lowest first.
structure	VDR inhibitor
O=C(CNC(=O)c1ccco1)NCC(=O)OCc1ccccc1Br	-8.4%
CCOc1cc2c(cc1OCC)C(c1ccc(O)c(OC)c1)NCC2 (configuration not stated)	-7.6%
COc1ccc(N2CCC(CNC(=O)Nc3ccccc3)C2)cc1 (configuration not stated)	-6.2%
CCOc1ccc2nc(NC(=O)c3cc(=O)c4ccc(C)cc4o3)sc2c1	-3.6%
CCc1ccc(/C=C2/Sc3ccccc3N(CC(=O)NCC3CCCO3)C2=O)cc1 (configuration not stated)	8.2%

# Following part
structure	VDR inhibitor
COC(=O)c1cc(NC(=O)/C=C/c2ccc3c(c2)OCO3)cc(C(=O)OC)c1	3.3%
CCOC(=O)c1cc2c(s1)-c1c(C)cccc1OC2	4.4%
CCc1ccccc1N(CC(=O)NCC1CCCO1)C(=O)CCC(=O)Nc1nccs1 (configuration not stated)	?
C/C(=N\NC(=O)C(=O)Nc1c(C)n(C)n(-c2ccccc2)c1=O)c1ccc(Cl)s1	-9.0%
CCOc1ccccc1N(CC(=O)N1CCCC1)S(C)(=O)=O	-21.7%
COc1ccc(S(=O)(=O)N2CCOCC2)cc1NC(=O)CCCOc1ccc(Cl)cc1C	1.1%
COC(=O)c1ccc(CCc2cc(O)ccc2O)cc1	?
CCOc1ccc(-c2cn3c(n2)sc2cc(C(=O)NCCc4ccc(OC)cc4OC)ccc23)cc1	2.2%
C/C(=N\NC(=O)COc1cccc(C)c1)c1ccc2ccccc2c1O	-15.2%
Cc1cc(C)cc(NC(=O)C2C3C=CC(O3)C2C(=O)O)c1 (configuration not stated)	2.4%
COc1ccc(CCN(C)C/C=C/c2ccccc2)cc1OC	-14.4%
Cc1cc(Oc2ccc(-c3ccccc3)cc2)n2ncnc2n1	-11.1%
COC1=CC(=O)OC(c2ccc(OC)cc2)C1 (configuration not stated)	6.2%
Cc1cc2nc(-c3ccc(NC(=O)C(C)C)cc3)oc2cc1C	2.8%
COc1ccc(CNC(=O)[C@H](C)NC(=O)[C@@H]2Cc3ccccc3CN2)cc1	14.0%
CCOc1c2ccc(C(=O)NCC34CC5CC(CC(C5)C3)C4)cc2nn1CC	?
CSc1ccc(S(=O)(=O)NCc2ccc(C)cc2)cc1	11.2%
Cc1nn2c(N)c(-c3ccccc3)cnc2c1-c1ccc(Cl)cc1	5.3%
COc1c(OC)c2[nH]c(=O)cc3c4ccccc4n(c1=O)c23	12.4%
COc1cccc(NC(=O)COC(=O)C2CC(=O)N(c3ccc(C)cc3)C2)c1 (configuration not stated)	20.1%
COc1ccc(OCCCN(C)Cc2ccccc2)cc1	-8.6%
Clc1ccc(-c2c[n+](Cc3ccc(Cl)cc3Cl)c3n2CCCCC3)cc1	-15.6%
C/C(=N/NC(=O)CSc1nc2ccccc2n1C)c1ccncc1	-4.7%
c1ccc(C2[C@H]3CN(CC4CCCCC4)[C@H](c4ccccc4)C34CC2(c2ccccc2)C4)cc1 (some centres not stated)	?
COc1cccc(C(=O)/C=C/Nc2ccc(S(=O)(=O)Nc3cccc(C(C)=O)c3)cc2)c1	-12.0%
C=C(C)c1cccc(C(C)(C)NC(=O)N2CCN(c3ccccc3)CC2)c1	-8.9%
CCOC(=O)C1CCCN(Cc2nc(N)nc(Nc3ccc(Cl)cc3)n2)C1 (configuration not stated)	-8.8%
CCOc1ccccc1NC(=O)CN1C(=O)C(=O)N(Cc2ccco2)C1=O	1.2%
CCOC(=O)C1(Cc2cccc(F)c2)CCN(C(=O)Cc2cccnc2)CC1	9.1%
O=C(NC(=S)Nc1cc(Cl)ccc1N1CCOCC1)c1ccc(-c2cccc(Cl)c2)o1	-11.9%
CCOC(=O)c1ccc(Nc2c(CC)c(C)nc3ncnn23)cc1	-4.9%
Cc1cc(NC(=O)CSCc2nc(-c3cccc(F)c3)oc2C)no1	-18.1%
CCN(CC)C(=O)CCC(=O)Nc1ccc(C(=O)OC)cc1	3.4%
Cc1ccc(S(=O)(=O)CCC(=O)OCC(=O)NC(N)=O)cc1	-13.9%
CC(C)(C)OC(=O)N1CCC(CNC(=O)c2ccc(F)cc2)CC1	14.9%
Cc1n[nH]c(=S)n(NC(=O)/C=C/C(=O)Nn2c(=S)[nH]nc(C)c2=O)c1=O	-15.7%
COc1ccc2[nH]c3c(c2c1)CCN1C(=O)C(CC(=O)NCCN2CCOCC2)C[C@H](C(=O)N2CCOCC2)[C@@]31C (some centres not stated)	-22.1%
C1=CN2CCC1C(c1ccccc1)C2 (configuration not stated)	-4.6%
CCOc1ccc2oc(C(=O)NCC(c3ccco3)N(C)C)c(C)c2c1 (configuration not stated)	6.9%
CN(C)S(=O)(=O)c1ccc2c(c1)N(CC(=O)Nc1cccc(C(F)(F)F)c1)C(=O)CS2	10.7%
Nc1nonc1-n1nnc(C(=O)N/N=C/c2ccc(OCc3ccccc3)cc2)c1CN1CCCCC1	-9.3%
Cc1cc(C)n2nc(SCC(=O)NC(=O)c3ccccc3Cl)nc2n1	-17.8%
CN1CCN(CCC2Oc3cc([N+](=O)[O-])ccc3NC2=O)CC1 (configuration not stated)	-7.2%
Cn1ncc(Cl)c1C(=O)Nc1ccc2c(c1)CCC2	-13.2%
COc1cccc(C(=O)CC2(O)C(=O)Nc3ccc(Cl)cc32)c1 (configuration not stated)	8.0%
Fc1ccc(NC(=S)NCCc2ccc(Cl)cc2)cc1	-11.8%
Cc1nnc(SCc2cc(=O)c3cc(F)ccc3[nH]2)n1C	4.6%
Cc1ccc(NC(=O)C2(C)Cc3ccccc3C(=O)O2)c(C)c1 (configuration not stated)	7.9%
CC(C)C[C@@H](CN1CCCC1CN1C(=S)NC[C@@H]1Cc1ccc(O)cc1)N1C[C@H](Cc2ccccc2)N(CC2CCCCC2)C1=S (some centres not stated)	-1.0%
CCOc1ccc(-n2c(=O)c3sccc3n(Cc3ccc(C)cc3)c2=O)cc1	-2.6%
COc1cc(C(=O)Nc2ccc(Cl)c(C(F)(F)F)c2)cc(OC)c1OC	8.3%
CC(C)Oc1ccccc1-c1nc(SCC(=O)O)n[nH]1	18.3%
O=c1c2sc(-c3ccccc3)cc2nc2n1CCCCC2	11.8%
Cc1cccc(OCCn2c(SCC(=O)O)nc3ccccc32)c1	10.6%
Cc1nc(N2CCOCC2)c2c(C)c(C(=O)Nc3ccccc3Cl)sc2n1	-11.9%
CCCOC(=O)C1[C@H]2C(=O)N(CCCOC)C[C@]23C=C[C@H]1O3 (some centres not stated)	14.5%
COc1ccc(NC(=S)NNC(=O)c2ccc(S(=O)(=O)N3CCOCC3)cc2)cc1	43.3%[activator]
O=C1/C(=C/c2ccccn2)SC(=S)N1c1cccc(O)c1	5.2%
O=C1C(c2ccc(F)cc2)N(CCc2ccc(Cl)cc2)C(=O)CN1C1CCCCC1 (configuration not stated)	8.0%
COc1ccc(CCN2CC(C#N)=C3c4cc(OC)c(OC)cc4CCN3C2)cc1OC	-9.2%

# Remaining list, next part.
structure	VDR inhibitor
CCn1nc(C)c(NC(=O)/C=C/c2cnn(C)c2)c1C	18.7%
Cc1nc2ccccc2c(=O)n1/N=C/c1cn(-c2ccccc2)nc1-c1cccs1	-14.6%
O=C(NCc1ccco1)C1CN(S(=O)(=O)c2ccccc2)CCN1S(=O)(=O)c1ccccc1 (configuration not stated)	-15.7%
CC(=O)Nc1ccc(S(=O)(=O)NC2(C(F)(F)F)C(=O)Nc3c2c(=O)[nH]c(=O)n3-c2cccc(Cl)c2)cc1 (configuration not stated)	-4.3%
COC(=O)CN1C(=O)COc2ccc(S(=O)(=O)N3CCCC3)cc21	-3.1%
COC(=O)c1c(C)[nH]c(C(=O)C(C)OC(=O)c2c(C)noc2C)c1C (configuration not stated)	-0.5%
O=C(C1COc2ccccc2O1)N1CCN(c2ccccc2O)CC1 (configuration not stated)	-6.6%
CC(C)C[C@H]1CN=C(Nc2ccccc2)N1CCCC1CCCCC1	-10.1%
CCCCCCNC(=O)c1c(O)c2cccc3c2n(c1=O)CCC3	2.5%
COc1cccc(OCc2cc(C(=O)N(C)C3CCOCC3)no2)c1	-14.6%
CCCCn1[nH]c(-c2ccccc2)cc1=O	-4.2%
Nc1cc2nc[nH]c2cc1N	8.2%
Cc1ccc(C(=O)N2CC(=O)Nc3ccc(F)cc3C2c2ccccc2)cc1[N+](=O)[O-] (configuration not stated)	?
O=C(CSc1nnc(Cc2cc(=O)[nH]c(=O)[nH]2)n1-c1ccc(F)cc1)N1CCCCC1	-5.2%
CCc1nnc(SCC(=O)Nc2cccc(C(F)(F)F)c2)c2cc3oc(C)cc3n12	12.5%

# Quoted at random: 3 entries already listed.
structure	VDR inhibitor
O=C(CSc1nnc(Cc2cc(=O)[nH]c(=O)[nH]2)n1-c1ccc(F)cc1)N1CCCCC1	-5.2%
CCn1nc(C)c(NC(=O)/C=C/c2cnn(C)c2)c1C	18.7%
Nc1cc2nc[nH]c2cc1N	8.2%

# (cont.)
structure	VDR inhibitor
CCN(CC)c1ccc(NC(=O)CSc2nc3nc(C)cc(C)c3c(=O)[nH]2)cc1	-13.7%
N#Cc1nc(-c2ccc(COc3ccc(Cl)cc3)o2)oc1N1CCCCC1	0.5%
CCOc1ccc(-c2nnc(-c3ccncc3)o2)cc1OCC	-6.6%
CCC(=O)Nc1ccc2c(c1)ncn2-c1ccccc1	-0.5%
NC(=O)CSc1nc2sc(-c3ccccc3)cc2c(=O)n1N	-18.7%
c1ccc2cc(CCCc3cc4ccccc4cn3)ncc2c1	-14.2%
COc1cc(C(F)(F)F)c(C(=O)N(C)Cc2cc(Cl)cc(Cl)c2)cn1	-15.5%
O=C(NCCN1CCCC1=O)C1CCC(=O)N(CCc2ccc(Cl)cc2)C1 (configuration not stated)	-12.4%
Cc1ccc(/C(O)=C2\C(=O)C(=O)N(Cc3cccnc3)C2c2ccccc2[N+](=O)[O-])cc1 (configuration not stated)	-13.7%
O=C(NCC1CCCO1)c1cccc(N2C(=O)C3C4C=CC(C4)C3C2=O)c1 (configuration not stated)	12.3%
COCCNC(=O)c1cc2c(=O)[nH]c3ccccc3c2s1	24.3%
Cc1ccc(/C=C/c2nnc(-c3cccc(C)c3)o2)cc1	-12.0%
O=C(COC(=O)/C=C/c1nc2ccccc2s1)Nc1ccccc1Oc1ccccc1	-11.7%
Cc1ccc(C(=O)CC(=O)c2ccc(C)cc2O)cc1	-11.1%
Cc1oc2c(c1C(=O)Nc1ccc(Cl)cc1F)C1=NCCN1C=N2	11.1%
NC(=O)NCC(=O)N1CCN(S(=O)(=O)c2ccc(Cl)s2)CC1	-6.4%
CN1C(=O)N(C)c2cccc3cccc1c23	8.6%
C=CCn1c(SCc2ccc(C(=O)Nc3ccccc3)cc2)nnc1-c1ccccc1	-0.6%
CC(=O)Nc1c2c(nn1-c1ccccc1C)CS(=O)C2 (configuration not stated)	?
CCn1c(=O)cc(SCC(=O)N2CCN(c3ccccn3)CC2)c2ccccc21	5.4%
O=C(COc1ccc(Cl)cc1)NCc1nnc(SCC(=O)Nc2ccc(F)cc2F)o1	-3.0%
Cc1cccc(OCCC(=O)Nc2ccc(F)c(F)c2)c1	7.2%
COc1ccc2c(c1OC)C(=O)N1c3ccccc3N=C(c3ccc([N+](=O)[O-])cc3)CC21 (configuration not stated)	89.1µM*
Cn1cccc1C(=O)N1CCC[C@@]2(CCN(C(c3ccccc3)c3ccccc3)C2)C1	?
COc1cc(C2NC(=O)NC(C)=C2C(=O)OCC2CCCO2)cc(OC)c1OC (configuration not stated)	-6.0%
O=C(Nc1cccc(O)c1)C1CCCN1C(=O)OCc1ccccc1 (configuration not stated)	-1.6%
CN1c2ccsc2C(O)=C(C(=S)Nc2ccccc2)S1(=O)=O	?
CCC(=O)N1CCN=C1SCc1ccccc1	-14.2%
CCOC(=O)c1c(-c2ccccc2)oc2ccc(NS(=O)(=O)c3ccc(C)cc3)cc12	8.7%
COCCNC(C(=O)Nc1ccc([N+](=O)[O-])cc1Br)c1ccccc1 (configuration not stated)	-3.3%

# From PubChem BioAssay
